Assay outcomes as filed in PubChem BioAssay.
GLA inh pH 4.5: qHTS Assay for Inhibitors of Human alpha-Galactosidase at pH 4.5; 230,000 tested, under 10 active; purified enzyme, 4-MU-alpha-Gal fluorescence, pH 4.5; Alpha-galactosidase A (Homo sapiens), P06280; activity change, negative = inhibition, % at 105 µM; inconclusive = small, poorly fitted or top-dose-only inhibition, or a rising curve; inactive = flat fitted curve, though single readings scatter; no compound was filed as active;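 also: 0% = full activity with enzyme and -100% = basal without enzyme; dose as in the result columns while the protocol names 77 µM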
Target sequence (P06280 whole entry, looked up): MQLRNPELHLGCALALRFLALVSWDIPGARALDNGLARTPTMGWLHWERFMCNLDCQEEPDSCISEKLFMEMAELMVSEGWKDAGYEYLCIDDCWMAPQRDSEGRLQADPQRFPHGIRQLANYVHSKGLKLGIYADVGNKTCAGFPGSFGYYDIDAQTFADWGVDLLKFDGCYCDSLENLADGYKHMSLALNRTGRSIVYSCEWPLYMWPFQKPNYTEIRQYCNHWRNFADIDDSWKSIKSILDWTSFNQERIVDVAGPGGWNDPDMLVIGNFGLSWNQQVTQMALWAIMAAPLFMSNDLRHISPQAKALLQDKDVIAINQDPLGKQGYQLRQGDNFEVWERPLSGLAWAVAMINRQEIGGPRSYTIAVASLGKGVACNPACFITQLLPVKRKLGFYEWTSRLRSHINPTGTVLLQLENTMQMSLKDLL
Rango-impB inh: qHTS Assay for Inhibitors of Rango (Ran-regulated importin-beta cargo) - Importin beta complex formation | Importin subunit beta-1 (Homo sapiens), Q14974 | hit rate 0.031% among 340,000 | Potency, µM (doses to about 92.2 µM), for inactives: at the top dose inhibition of complex formation | Rango CFP/YFP FRET sensor + importin beta, 45 min | AID 540263, 2011; active = rising FRET ratio curve, often small or poorly fitted; inconclusive = mostly compound fluorescence or quenching in the first reads; inactive = flat curves in all reads;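 also: potency is read from the fitted curve at half-maximal effect; 0% = DMSO wells and 100% = buffer wells lacking importin beta; nearly all actives have a fitted effect of over 15% in size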
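FRET biosensor (snurportin 1 IBB flanked by EYFP and cerulean), 50 nM, with compound 5 min, then 0.125 microM importin beta in PBS, 1 mM DTT, 0.02% Tween-20, 0.1% BSA. CFP/YFP ratio read after 45 min at room temperature; pre-read flags interference.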
Rango release inh: qHTS Assay for Inhibitors of RanGTP induced Rango (Ran-regulated importin-beta cargo) - Importin beta complex dissociation; Snurportin-1 (Homo sapiens) + GTP-binding nuclear protein Ran (Homo sapiens) + Importin …; Biochemical FRET Rango-importin beta, RanGTP-induced dissociation; Potency, µM (titrated, usually from 46.1 µM), for the others: at the top dose activity change, negative = inhibition; hit rate 0.071% among 340,000; active means falling FRET ratio curve, often poorly fitted, with flat reads before Ran was added; inconclusive means other falling curves, or compound fluorescence or quenching; inactive means flat or rising ratio curve;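 also: potency is read from the fitted curve at half-maximal effect; % of control where 0% means no effect; nearly all actives have a fitted effect of over 45% in size; -100% = wells without RanGTP and RCC1; the record marks most hits as doubtful in a second field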
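Rango/importin beta premix (0.1/0.25 uM final), PBS + 1 mM DTT + 0.02% Tween-20 + 0.1% BSA; cpd 5 min RT; FRET pre-read; + RanGTP-RCC1 (0.6 uM Ran, 2 mM GTP, 0.2 uM RCC1); 45 min RT; FRET post-read, ex 430, em 486/530 nm.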
miR-21 FLuc: qHTS Assay for Modulators of miRNAs and/orActivators of miR-21 | Potency, µM (titrated, usually from 38.3 µM), without a hit: top-dose reporter change, positive = more light | HeLa miR-21 FLuc reporter, luciferase, 48 h | AID 2288, 2010 | 340,000 tested, under 10 active; active = well fitted rising curve with a large enough effect; inconclusive = small, poorly fitted or top-dose-only effect; inactive = no such curve, though single readings can be large or run the other way;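 also: % of control where 0% means no effect; miR-21 action dims this reporter so a rising signal means less miR-21 action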
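HeLa cells stably expressing CMV-driven firefly luciferase with a downstream miR-21 binding sequence, endogenously expressing miR-21, were treated with titrations (up to about 40uM final) for 48 hours at 37 degree Celsius. Luciferase luminescence was read after lysis.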
* = called active by the depositor; u = inconclusive; x = no result given; & = joins results of further samples. Some of the compounds tested; the hit share may differ from the screen's.

SMILES | GLA inh pH 4.5 | Rango-impB inh | Rango release inh | miR-21 FLuc
O=C(Cn1cc(C(F)(F)F)ccc1=O)N/N=C/c1ccccc1O | -3 | 0.3% | u | 17%
Brc1cccc(OCCN2CCOCC2)c1 | x | -3.1% | 2% | -22%
Cc1ccc(C(=O)Nc2cc(C(F)(F)F)ccc2-n2cncn2)o1 | x | 4.6% | 5% | x
CN(c1ccc(OCC(=O)OCC(=O)Nc2ccc(Br)cc2)cc1)S(=O)(=O)c1cccs1 | -8 | u | 17% | -3%
Clc1ncc(CN2CCN(Cc3ccccc3)CC2)s1 | -1 | 3.4% | -23% | -1%
CCCNC(=O)Cc1cc(=O)[nH]c(=O)[nH]1 | -5 | -5.5% | 5% | -2%
Cc1cccc(C)c1NC(=O)C1CC(=O)N(C(C)C)C1 (centres undefined) | -3 | 4.5% | 16% | 1%
O=C(c1ccc(Cl)cc1)c1cnc(-c2ccc(Cl)cc2)s1 | -4 | 2.6% | -4% | -8%
CN(C(=O)CSc1nnc(-c2ccco2)n1C)C1CCCCC1 | x | 9.1% | -6% | x
O=C(NC(=S)Nc1ccccc1N1CCCC1)c1cccc(F)c1 | -4 | -1.9% | 14% | -16%
CCOC(=O)N1CCC(NC(=O)CCc2c(C)nc3c(c(C)nn3-c3ccccc3)c2C)CC1 | x | -0.3% | -3% | x
CC(C(=O)NCC1CCCCC1)N1CCN(S(=O)(=O)/C=C/c2ccccc2)CC1 (centres undefined) | 6 | 2.6% | -13% | 1%
CC(=O)c1ccc(NC(=O)COC(=O)/C=C/c2cccs2)cc1 | x | -0.9% | -8% | x
COc1cc2c(cc1N)-c1ccc(N)cc1C2 | x | -2.4% | u | x
O=C(CSc1ccc(-c2cccc([N+](=O)[O-])c2)nn1)N1CCCC1 | -5 | -0.2% | 20% | -10%
CN1C(=O)N(CC(=O)N2CCN(S(=O)(=O)c3ccc(Cl)s3)CC2)C(=O)C12CCCCC2 | x | 1.7% | -2% | x
COc1ccc2sc(N(CCCN(C)C)C(=O)c3ccc(S(=O)(=O)N(C)C4CCCCC4)cc3)nc2c1 | x | -3.7% | -11% | x
CC1(C(=O)O)CCC(C(=O)Nc2ccc3ccccc3c2)C1(C)C (centres undefined) | 3 | 0.1% | 17% | -7%
CSCC[C@H](Nc1ncnc2sc(C)c(C)c12)C(=O)O | 5 | -0.6% | -11% | 0%
CC1(C)Cc2ccccc2C(CSc2ccccc2C(=O)O)=N1 | -1 | -1.7% | -20% | -5%
CCOC(=O)c1cnn(-c2ncnc3sc(CC)cc23)c1N | 8 | 4.5% | -11% | -3%
COc1cccc(N2CCN(CC(=O)Nc3ccccc3C(=O)NCCc3ccccc3)CC2)c1 | x | -1.6% | -1% | x
CCN(Cc1ccc2c(c1)OCCO2)C(=O)CSc1nc(C)nc2sc(C)c(C)c12 | x | 1.4% | -14% | x
CSc1nc(C2CC2)cc(-c2cccs2)c1C#N | -3 | -3.8% | -2% | -8%
CC(=O)/C(=C/N(C)C)Sc1ccc(C)cc1 | 0 | 0.3% | -1% | -3%
CC(=O)Nc1ccc(S(=O)(=O)Nc2nc3ccccc3nc2N2CCCCCC2)cc1 | 5 | u | -19% | -9%
O=C(NCCc1ccccc1)c1ccc(CS(=O)(=O)c2ccc(Br)cc2)o1 | x | 0.8% | 10% | 1%&5%
CC(C)N1C(=O)CC(Nc2cccc3cccc(N)c23)C1=O (centres undefined) | -3 | -0.6% | -2% | 7%
CCOc1ccc(/C=N/n2cnnc2)cc1 | -4 | -3.2% | 2% | -6%
CCOC(=O)COc1ccc(/C=C2\NC(=S)N(CC)C2=O)cc1 | -1 | u | u | -2%
S=c1[nH]nc(COc2ccccc2)n1/N=C/c1ccccc1Cl | x | -0.5% | 1% | -14%
O=C(N/N=C/C=C/c1ccccc1)c1cc(C2CC2)[nH]n1 | -3 | 8.2% | 12% | -17%
OC(C#CCN1CCCCC1)(c1ccccc1)c1ccccc1 | x | -2.3% | -8% | 0%
Cc1cc(C)c(NC(=O)Cn2nnc(C(=O)NCc3ccco3)c2N)c(C)c1 | 4 | 1.3% | 2% | 3%
O=C(CSc1nnc(NC(=O)CN2CCOCC2)s1)Nc1ccccc1 | 5 | 0.4% | 4% | -10%
CN1CCN(c2ccc(S(=O)(=O)N3CCCCC3)cc2NC(=O)Cc2c(F)cccc2Cl)CC1 | x | -2.6% | -4% | x
CCn1c(/C=C/c2cccc([N+](=O)[O-])c2)nc2ccccc2c1=O | -6 | 1.4% | -8% | -2%
CCCCOC1(c2ccccc2)OC(=O)c2ccccc21 (centres undefined) | -1 | -1.2% | -7% | -4%
COC(=O)Cn1c(=O)c2c(nc3n2CCCN3CCc2ccccc2)n(C)c1=O | x | -0.8% | 18% | 5%
Cc1ccc(Cl)cc1N1CCN(CC(=O)Nc2ccc3[nH]c(=O)[nH]c3c2)CC1 | 1 | 2.9% | -10% | -1%

Record cards, as listed above.
`COC(=O)Cn1c(=O)c2c(nc3n2CCCN3CCc2ccccc2)n(C)c1=O` is entered as GLA inh pH 4.5 = x; Rango-impB inh = -0.8%; Rango release inh = 18%; miR-21 FLuc = 5%
`O=C(N/N=C/C=C/c1ccccc1)c1cc(C2CC2)[nH]n1` is entered as GLA inh pH 4.5 = -3; Rango-impB inh = 8.2%; Rango release inh = 12%; miR-21 FLuc = -17%

(more compounds)
SMILES | GLA inh pH 4.5 | Rango-impB inh | Rango release inh | miR-21 FLuc
Cc1c(C(=O)NCc2cccs2)oc2ccc(Br)cc12 | 9 | 0.3% | -8% | -26%
O=C(c1ccc(Cl)cc1)N1CCC(O)(CSc2ccccc2)CC1 | -17 | 0.9% | 17% | 0%
CCOc1ccc(S(=O)(=O)N(C)c2ccc(OCC(=O)Nc3nccs3)cc2)cc1 | 0 | -0.7% | 1% | 11%
C/C(=C1/SC(=S)N(CCC(=O)O)C1=O)c1ccc(O)cc1 | -5 | 4.3% | 29% | -2%
O=C(Nc1ccccc1)Nc1ncc([N+](=O)[O-])s1 | -5 | -2.0% | -4% | 28%
c1cc2c3c(cccc3c1)C(N1CCCCCC1)=N2 | -3 | u | u | -7%
C=CCn1c(SCC(=O)OCc2ccccc2)nc2c1c(=O)n(C)c(=O)n2C | 2 | -2.0% | 14% | 6%
CCOc1cc(/C=N/NC(=O)COc2nc(C)cc(COC)c2C#N)ccc1O | -4 | 3.5% | 14% | -5%
COc1ccc(C(=O)C2CCCN(C(=O)c3ccccc3C(C)=O)C2)cc1F (centres undefined) | -27 | -1.1% | -8% | -26%
COc1ccccc1C(=O)O/N=C(\N)c1ccc(Cl)cc1 | 5 | 0.9% | 28% | -50%
CN(C)c1ccc(NC(=O)Nc2csc3ccccc23)cc1 | -4 | 4.8% | -16% | -58%
COC(=O)CCCC1=CC2=C(c3ccccc3)C(=O)C(C)(OC(=O)C3CCCC3)C(=O)C2=CN1C1CCCC1 (centres undefined) | 5&-2 | 2.4% | -22% | 6%
CCOC(=O)CSc1nc2sc3c(c2c(=O)n1CC)CC(C)(C)OC3 | 3 | -1.6% | 11% | 0%
CCc1ccc(CNC(=O)C2CCCN(S(=O)(=O)N(CC)c3ccccc3)C2)cc1 (centres undefined) | x | 0.0% | -7% | 6%
O=C(CCN1C(=O)/C(=C\c2ccc(F)cc2)SC1=S)Nc1ccc(O)cc1 | x | 0.3% | -4% | -2%
CCCN1CCC(=O)N([C@H](CO)c2ccccc2)CC1 | x | -1.4% | -1% | 1%
COc1ccc(COC(=O)C2=C(C)NC(=O)NC2c2ccc(O)c(OC)c2)cc1 (centres undefined) | -2 | -2.3% | 7% | -24%
FC(F)(F)c1cccc(CN2CCN(c3ncccn3)CC2)c1 | x | -0.7% | -10% | x
CC(=O)c1c(C)nc(-c2ccc(Cl)cc2Cl)n1O | -5 | 0.0% | 5% | -4%
COc1ccc(C(O)c2nc3ccccc3n2C)cc1OC (centres undefined) | -5 | 2.3% | 10% | 17%
CCOC(=O)CSc1nnc(CNC(=O)Cc2ccccc2)n1C | -5 | 3.3% | 20% | -4%
Cc1cc(C)cc(Oc2ccc(NC(=O)C3CC=CCC3C(=O)O)cc2)c1 (centres undefined) | -1 | -3.3% | -11% | -17%
Cc1cc(C)nc(NC(=O)c2cc3ccccc3o2)n1 | 2 | -2.1% | -1% | -18%
Clc1ccc(Nc2nc(-c3ccncc3)cs2)cc1 | x | -0.9% | -2% | x
CCCOc1ccc(/C(O)=C2/C(=O)C(=O)N(CCCN3CCOCC3)C2c2ccncc2)cc1 (centres undefined) | -5 | x | x | -2%
COc1cccc(NC(=O)Cn2nnc(C(=O)NCc3cccs3)c2N)c1 | x | -3.1% | 0% | 1%&5%
Nc1ccc(C(CC(=O)O)n2cccc2)cc1 (centres undefined) | 0 | -0.3% | -8% | 1%
Cc1ccc([N+](=O)[O-])cc1N/C=C1\CCCCC1=O | 9 | u | u | -10%
CCn1c(=N)n(CC(=O)C23CC4CC(CC(C4)C2)C3)c2ccccc21 | -16 | -3.1% | -3% | 1%
Cc1cc(C)c(C)c(S(=O)(=O)NCCCN2CCCC2=O)c1C | x | -2.3% | -2% | -2%
COc1cc(NC(=O)CSc2nc3[nH]ncc3c(=O)n2-c2ccccc2C)cc(OC)c1OC | 0 | -1.5% | 13% | -7%
O=C(COc1ccc2ccccc2c1)N/N=C/c1ccccn1 | -16 | 3.2% | -12% | -3%
CCCSc1nc2c(cnn2-c2ccc(Cl)cc2)c(=O)[nH]1 | 5 | -1.1% | 1% | -7%
COc1ccccc1C(=O)NC(=O)COC(=O)C1CC2CCCC(C1)C2=O (centres undefined) | x | -1.7% | 1% | 2%
COc1ccc(CC(=O)N(Cc2ccccc2)c2cccc(C)c2)cc1OC | x | -0.7% | -8% | 5%
COc1ccc(-n2c(SCC(=O)Nc3nccs3)nnc2-c2ccc(Cl)cc2)cc1 | x | -3.4% | 10% | x
N#CC1=C(N)Oc2n[nH]c(-c3ccccc3)c2C1c1ccsc1 (centres undefined) | 6 | -1.7% | 11% | -12%
O=C(Nc1ccccc1)Nc1ccc2ccccc2n1 | x | -1.3% | 11% | -21%
CCC(=O)N(Cc1cc(=O)[nH]c2ccccc12)c1cccc(C)c1 | -23 | 1.4% | u | -18%
COc1cccc2cc(-c3nc4ccccc4[nH]3)c(=O)oc12 | x | u | u | -52%
O=C1CCc2cc(NS(=O)(=O)c3ccccc3)cc3c2N1CC3 | x | u | 13% | x
Cc1ccc(NC(=O)c2ccc3c(c2)S(=O)(=O)c2ccccc2C3=O)cc1S(=O)(=O)N1CCOCC1 | -7 | 1.4% | 1% | 1%
CC(C)c1nc(SCC(=O)N2CCN(c3ccccc3)CC2)c2c(=O)n(C)c(=O)n(C)c2n1 | -2 | 0.3% | 3% | -5%
Cc1ccc(C(=O)N/C(=C\c2ccc(-c3ccccc3[N+](=O)[O-])o2)C(=O)NCCN(C)C)cc1 | x | u | u | 13%
c1coc(CNCC2OCCc3ccccc32)c1 (centres undefined) | 3 | -0.1% | -4% | -12%
CCCc1cc(Nc2ccccc2C)n2ncnc2n1 | x | -0.3% | -13% | -8%
COc1ccc(NC(C)=O)cc1NC(C)C(=O)Nc1ccc(F)c(F)c1F (centres undefined) | -10 | -1.2% | 6% | 3%
Cn1c(Nc2ccccc2)nc2ccccc21 | x | 6.1% | 8% | -37%
CC(C)C(C(=O)NCC1CCCO1)N(C(=O)CNS(=O)(=O)c1ccccc1)c1ccc(F)cc1 (centres undefined) | x | -0.7% | 7% | -1%
